Screens as filed in PubChem BioAssay.
Cruzain noTriton – blocks cruzain activity in detergent-free assay; Potency, µM, for inactives: max response, negative = inhibition, actives largely listed as inhibitors; purified cruzain, Z-FR-AMC fluorescence, no detergent; 200,000 tested, 2.3% active;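 further: plate controls were enzyme without inhibitor for no effect and buffer without enzyme for full effect; nearly all actives have a fitted effect of over 40% in size; top concentration of the series not given in the record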
Target sequence (P25779 123-467 limits assumed): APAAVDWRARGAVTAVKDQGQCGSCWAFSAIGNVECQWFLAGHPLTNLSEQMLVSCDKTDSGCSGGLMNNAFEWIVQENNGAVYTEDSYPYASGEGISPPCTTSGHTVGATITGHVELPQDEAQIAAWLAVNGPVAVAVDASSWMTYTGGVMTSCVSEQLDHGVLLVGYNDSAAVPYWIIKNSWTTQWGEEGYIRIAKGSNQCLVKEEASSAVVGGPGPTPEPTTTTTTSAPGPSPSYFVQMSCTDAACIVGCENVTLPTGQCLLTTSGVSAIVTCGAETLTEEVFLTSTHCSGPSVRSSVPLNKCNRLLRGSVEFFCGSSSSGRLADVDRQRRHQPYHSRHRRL
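Purified cruzain at 1.5 nM, pre-incubated 15 min with compound at room temperature in 100 mM sodium acetate pH 5.5, 5 mM DTT, 0.00005% Triton X-100. Reaction started with 2 uM Z-FR-AMC; AMC fluorescence increase over 60 s gives rate.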
SARS PLP yeast – SARS-CoV PLP inhibition in yeast | S. cerevisiae expressing SARS-CoV PLpro, growth rescue; control for the full effect not named in the record | Potency, µM (series often up to 32.9 µM), for the others: top-dose activity, positive = growth rescue | 330,000 tested, 0.19% active; active means well fitted rising curve with a large enough effect; inconclusive means small, poorly fitted or top-dose-only effect; inactive means no such curve, though single readings can be large or run the other way; further: 0% is about no effect; nearly all actives have a fitted effect of over 55% in size; growth read by luminescence after 48 h
LASV entry inh – blocks Lassa virus binding to or entry into cells; Lassa virus pseudotype entry inhibition, cell reporter; control for the full effect not named in the record; 300,000 tested, 1.2% active; Potency, µM (titrated, usually from 37.9 µM), for inactives: top-dose activity change, negative = inhibition, usual class: inhibitors; AID 540256; active means well fitted inhibition curve with a large enough effect; inconclusive means small, poorly fitted or top-dose-only effect, or effect the other way; inactive means flat fitted curve, though single readings scatter; tested in HEK293 cells; further: on the % scale 0 is the no-effect control and ±100 the full control effect; nearly all actives have a fitted effect of over 50% in size; luciferase read-out
MARV entry inh – inhibitors of Marburg virus binding or cell entry | Marburg virus pseudotyped entry inhibition, cell reporter; control for the full effect not named in the record; about a third of the inactives were read at about 46 µM | Potency, µM (series often up to 37.8 µM), without a hit: at the top dose activity change, negative = inhibition, most hits filed as inhibitors | 300,000 tested, 1.8% active; active = well fitted inhibition curve with a large enough effect; inconclusive = small, poorly fitted or top-dose-only effect, or effect the other way; inactive = flat fitted curve, though single readings scatter; tested in HEK293 cells; about a fifth of its hits are not listed in these tables; further: on the % scale 0 is the no-effect control and ±100 the full control effect; luciferase read-out
2A StopGo – lowers the luciferase signal of an FMDV 2A StopGo reporter; human cells with a luciferase reporter of 2A StopGo recoding; control for the full effect not named in the record; Potency, µM (top dose mostly 57.9 µM), without a hit: at the top dose signal change, negative = less light; 410,000 tested, 1.2% active; AID 1159524; active = well fitted falling curve with a large enough effect; inconclusive = small, poorly fitted or top-dose-only effect; inactive = no such curve, though single readings can be large or run the other way; tested in HEK293T cells; further: on the % scale 0 is the no-effect control and ±100 the full control effect; nearly all actives have a fitted effect of over 45% in size; luciferase light after 4 h
RE007 growth inh – less growth of the S. pombe RE007 Vpr strain | S. pombe RE007 Vpr strain, BacTiter-Glo ATP luminescence, 24 h; control for the full effect not named in the record | Potency, µM (top dose mostly 92.2 µM), for the others: top-dose activity change, negative = less growth | 360,000 tested, 0.21% active; active = well fitted falling curve with a large enough effect; inconclusive = small, poorly fitted or top-dose-only effect; inactive = no such curve, though single readings can be large or run the other way;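 further: on the % scale 0 is the no-effect control and ±100 the full control effect; nearly all actives have a fitted effect of over 50% in size; the assay follows cell death caused by Vpr and the record does not say whether a fall means rescue or toxicity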
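Fission yeast RE007 carrying one integrated HIV-1 vpr copy, seeded at OD 0.01 in PMG+AL medium with 23 nL pinned compound. Grown 24 h at 30 degrees; viability read by BacTiter-Glo luminescence after 5 min.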
NS1 function inh – blocks influenza NS1 protein function. S. cerevisiae slowed by influenza A NS1, growth recovery by OD600. Potency, µM (titrated, usually from 46.1 µM), for the others: top-dose activity, positive = more growth. 270,000 tested, 0.4% active; active means well fitted rising curve with a large enough effect; inconclusive means small, poorly fitted or top-dose-only effect; inactive means no such curve, though single readings can be large or run the other way; further: nearly all actives have a fitted effect of over 50% in size
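Recovery from NS1-induced slow growth read by OD600 in budding yeast switched to galactose assay medium (pH 6.0, -URA) at 1:100 dilution. Compound 23 nl per well; the matching strain lacking NS1 serves as control.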
Cruzain Triton – cruzain (T. cruzi) inhibition with detergent; P25779; purified cruzain, Z-FR-AMC fluorescence, 0.01% Triton; Potency, µM, for inactives: max response, negative = inhibition, hits mostly inhibitors; 200,000 tested, 0.43% active; AID 1478;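 further: plate controls were neutral wells for no effect and buffer without enzyme for full effect; nearly all actives have a fitted effect of over 40% in size; top concentration of the series not given in the record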
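In this qHTS format, compounds are incubated with 1.5 nM cruzain for 15 min at room temperature before 2 uM Z-FR-AMC is added. Release of AMC is followed at 360/450 nm, and progress is taken as the 60 s fluorescence difference.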
Starred values were filed as active, the others as inactive; ? = inconclusive; . = not tested or not shown; & = joins results of further samples; [ ] = another dose, or the depositor's remark. Unless noted, the call rests on the fitted dose curve; in most records, active means well fitted curve in the direction sought with a large enough effect; inconclusive means small, poorly fitted or top-dose-only effect, or another doubt; inactive means no such curve, though single readings can be large; an effect the other way counts as inactive or inconclusive. Potency means the concentration at half of the fitted maximal effect.

Compound,Cruzain noTriton,SARS PLP yeast,LASV entry inh,MARV entry inh,2A StopGo,RE007 growth inh,NS1 function inh,Cruzain Triton
CCOC(=O)N1CCN(C(=O)c2cnc(Nc3ccccc3OC)c3ccccc23)CC1,10%,5%,?,-3%,-5%,-5%,-18%,-3.8%
CCOC(=O)c1sc(N2C(=O)c3oc4ccc(F)cc4c(=O)c3C2c2ccc(O)cc2)nc1C (stereo not drawn),2%,.,0%[46.1 µM],11%[46.1 µM],-9%,.,.,-0.9%
C=CCNC(=O)C(=O)c1cccn1-c1ccsc1C(=O)OC,-3%,-3%,0%,16%,8%,3%,4%,0.1%
O=C1NC(=O)N(c2ccccc2)C(=O)/C1=C/c1ccc(Sc2ccccc2)o1,3%,4%,0%,?,?,11%,8%,-3.8%
COc1ccc(CNC(=O)c2cnn3c(C)c(Cc4c(F)cccc4Cl)c(C)nc23)cc1,-9%,.,-17%[46.1 µM],.,-20%,.,.,1.9%
COC(=O)c1ccc(COc2ccc(C)cc2[N+](=O)[O-])o1,.,-3%,19%,?,30%[activator],5%,-1%,.
CCCCNC(=O)C1c2ccccc2C(=O)N(c2ccc(OC)cc2)C1c1ccc(OC)cc1 (stereo not drawn),?,-12%,?,22%,1%,2%,-7%,8.4%
COc1cccc(N2CCN(C(C)C(=O)NC34CC5CC(CC(C5)C3)C4)CC2)c1 (stereo not drawn),.,-2%,?,?,-8%,7%,-47%,.
CCOC(=O)c1c(C)[nH]c(C)c1S(=O)(=O)NCC1CCN(Cc2cccc(F)c2)CC1,.,0%,.,.,14%,-3%,-1%,.
O=C(Cc1ccccc1)NCc1cccnc1,.,0%,2%,-12%,15%,30%,.,.
O=C(OCC(=O)N1CCc2ccccc21)c1ccc[n+]([O-])c1,2%,-2%,-12%,4%,-18%,7%,-4%,3.9%
COc1ccc(N(C(=O)c2ccco2)C(C(=O)NC2CCCCC2)c2cccs2)cc1OC (stereo not drawn),?,-3%,?,-3%,14%,16%,-1%,-0.8%
CCOc1ccccc1NC(C)C(=O)Nc1cc(C(F)(F)F)ccc1N1CCOCC1 (stereo not drawn),5%,5%,-8%,-23%,0%,0%,9%,-8.8%
Cc1nnc(N/N=C/c2ccccn2)[nH]c1=O,.,0%,.,.,-6%,0%,-7%,.
COc1ccc(COc2ccc(S(=O)(=O)N3CCCC3)cc2C(N)=O)cc1F,.,1%,-5%[46.1 µM],9%[46.1 µM],11%,-10%,2%,.
CCOC(=O)c1c(C)n(C)c2ccc(OC)c(NC(=O)CN3CCSCC3)c12,-7%,-2%,-3%,-5%,-27%,12%,-3%,-1.4%
CC(C)c1ccc(C2c3c(-c4ccccc4O)n[nH]c3C(=O)N2Cc2ccncc2)cc1 (stereo not drawn),-10%,.,.,?,-22%,.,.,4.3%
CCOC(=O)c1ccc(NC(=O)CC2Sc3ccc(C(F)(F)F)cc3NC2=O)cc1 (stereo not drawn),3%,.,-6%[46.1 µM],-15%[46.1 µM],-24%,.,.,-3.8%
CCCC(=O)OCC(=O)Nc1ccc([N+](=O)[O-])cc1C#N,.,-1%,-9%[46.1 µM],-29%[46.1 µM],-20%,-5%,-1%,.
CCOC(=O)CN1C(=O)N[C@@H](c2ccc(Br)cc2)C(C(C)=O)=C1C,10%&-8%,-5%,-11%,5%&5%&5%,.,.,-9%,3.4%&2.9%
Cc1cc(C)n(CNc2nc(C(F)(F)F)cs2)n1,3%,-4%,6%,24%,-17%,1%,0%,1.5%
COc1ccc(C(=O)C2CCCN(Cc3ccc(C#CCCO)cc3)C2)cc1F (stereo not drawn),.,0%,13%,1.1µM*,?,-5%,-1%,.
C/C(=N\NC(=O)C1(C)CC1(Br)Br)c1ccc([N+](=O)[O-])cc1 (stereo not drawn),.,3%,3%,2%[46.1 µM],0%,1%,0%,.
CC(N)=Nc1ccc([N+](=O)[O-])cc1,-3%,-6%,3%,19%,0%,-13%,12%,-3.7%
O=C(CSc1nccc(=O)[nH]1)Nc1ccc(F)c([N+](=O)[O-])c1,-4%,12%,2%,-29%,-22%,9%,10%,-0.1%
CCOc1ccc(CNC(=O)C2CCN(C(=O)N3CC(CC)Oc4ccc(C)cc43)CC2)cc1OC (stereo not drawn),-8%,.,?,.,?,.,.,-8.5%
Cc1ccc(CN2C3CCCC2CC(NC(=O)Nc2cccc(F)c2)C3)cc1 (stereo not drawn),.,-1%,.,.,-13%,0%,-2%,.
O=C(Cc1ccccc1)Nc1cccnc1,.,19%,13%,-2%[46.1 µM],0%,-11%,.,.
Cc1cc(NC(=O)CCC(=O)N(CC(=O)NCC2CCCO2)Cc2ccc(F)cc2)no1 (stereo not drawn),17%,16%,?,?,-25%,1%,4%,2.4%
CCC(=Nc1ccccc1OC)C1=C(O)CC(c2ccccc2)CC1=O (stereo not drawn),.,-7%,-4%[46.1 µM],5%[46.1 µM],6%,?,.,.
COc1ccc(-c2nc3c(-c4ccc(Cl)cc4)cnn3cc2C)cc1F,.,0%,?,0%[46.1 µM],-8%,5%,3%,.
CNC(=O)CN(c1cc([N+](=O)[O-])ccc1OC)S(C)(=O)=O,-8%,3%,?,43%,-14%,27%,3%,-5.0%
COc1ccc(NC(=O)Nc2cccc3cccnc23)cc1,-7%,-21%,?,?,38%[activator],10%,-139%,-6.4%
CCOC(=O)C(C)(CC)NC(=O)CSP(=S)(OCC)OCC (stereo not drawn),-6%,1%,-2%,9%,.,10%,0%,3.9%
CC(C)(C)NC(=O)C(c1ccncc1)N(Cc1cccs1)C(=O)Cn1nnc(-c2cccs2)n1 (stereo not drawn),?,4%,-17%,7%&-12%,.,-5%,-9%,-4.6%
COC(=O)c1cc2occc2n1CC(=O)Nc1ccc(C)cc1Cl,-2%,.,.,3%[46.1 µM],-5%,.,.,-1.4%
Cc1cc(Nc2c(C)n(C)n(-c3ccccc3)c2=O)c2ccccc2n1,0%,9%,?,3%,-2%,0%,2%,-4.5%
Clc1cccc(-n2cc(-c3ccccc3)c3c(N4CCCCC4)ncnc32)c1,-6%,.,2%[46.1 µM],.,?,.,.,-0.2%
COc1ccc(OC)c(/C=C2\SC(N3CCCC(C)C3)=NC2=O)c1 (stereo not drawn),.,0%,?,?,-3%,4%,-7%,.
CCN(CC)CCCCCOc1ccccc1OC,3%,-4%,-3%,1%,9%,-7%,0%,6.9%
C=CCn1c(=O)/c(=C/c2ccsc2)s/c1=C(\C#N)C(=O)NCCN1CCOCC1,.,.,-7%,-13%,-17%,-10%,.,.
COc1ccc(C2C=C(c3ccccc3)Nc3nnnn32)cc1 (stereo not drawn),0%,-8%,?,18%,.,-22%,-8%,-14%
COc1ccc(NCCC#N)cc1,5%,10%,26%,?,.,11%,-3%,5.4%
CCn1c(-c2ccc(-c3ccccc3)cc2)c[nH]c1=S,10µM*,29%,?,-8%,2%,7%,14%,4.6%
O=C(NCc1ccc2c(c1)OCO2)c1nnc(Cc2ccc(F)cc2)o1,3%,-1%,3%,-2%,0%,9%,-1%,0.5%
COC(=O)Cc1c(C)nc2nc[nH]n2c1=O,8%,4%,14%,6%,24%,7%,-2%,1.6%
CC(C)N(C(=O)c1ccc(-c2ccccc2F)cc1)C(C)C,.,-2%,-3%,-23%[46.1 µM],-12%,-1%,-41%,.
CCOc1ccc(N2CC(C(=O)OC)CC2=O)cc1 (stereo not drawn),-18%,-2%,4%,-13%[46.1 µM],1%,-12%,7%,2.5%
Cc1c(NC(=O)C(C)OC(=O)C(NC(=O)c2ccco2)C(C)C)c(=O)n(-c2ccccc2)n1C (stereo not drawn),0%,3%,4%,?,-2%,-14%,6%,6.1%
COc1cc(NC(=O)c2cc3ccccn3n2)cc(OC)c1OC,-8%,.,16%[46.1 µM],.,24%,.,.,1.1%
CN1CCNC(=O)C1CC(=O)NCCc1ccccc1F (stereo not drawn),.,0%,13%[46.1 µM],-24%[46.1 µM],-5%,0%,2%,.
O=C(NCc1ccccc1Cl)C1CCCN(C(=O)c2cnn(-c3ccc(F)cc3)c2-n2cccc2)C1 (stereo not drawn),?,.,-5%[46.1 µM],.,?,.,.,-26%
COc1ccc(CNC(=O)COC(=O)c2cc(-c3ccc(Cl)s3)nc3ccccc23)cc1,-18%,1%,7%,-2%,-10%,0%,7%,3.9%
CCN(CC)C(=O)CSc1nc2ncc(Br)cc2[nH]1,-7%,5%,2%,-18%,0%,14%,4%,-11%
COc1ccc(C(NC(C)=O)c2cc(Cl)c3cccnc3c2O)cc1 (stereo not drawn),.,10µM*,.,.,-18%,16%,-14%,.
CC(C)[C@H](NC(=O)c1ccccc1Br)C(=O)OCc1nc2ccsc2c(=O)[nH]1,.,0%,1%,-11%[46.1 µM],-22%,-16%,.,.
Cc1cc(S(=O)(=O)N2CCC3(CC2)OCCN3S(=O)(=O)c2cccs2)ccc1F,.,3%,?,?,-1%,-11%,.,.
CC1CN(CC(O)COC(c2ccc(Cl)cc2)c2ccc(Cl)cc2)CC(C)O1 (stereo not drawn),-9%,-19%,-24%,?,?,-4%,-22%,-2.5%
O=C(Nc1ccc2c(c1)OCO2)c1cc(-c2ccc(Br)cc2)on1,3%,.,4%[46.1 µM],6%[46.1 µM],?,.,.,-0.1%
CCc1ccc(NC(=O)C2(c3cccs3)CCOCC2)cc1,-4%,.,3%[46.1 µM],.,-16%,.,.,-2.8%
COc1ccc(-c2nc(CS(=O)CC(=O)NCCc3ccccc3)c(C)o2)cc1OC (stereo not drawn),8%,.,-2%[46.1 µM],7%[46.1 µM],22%,.,.,-4.5%
